# HCMV UL50-53 inh = cytomegalovirus nuclear egress complex inhibition | HTRF UL50-UL53 interaction, normalized percent inhibition | inhibition, % (concentration not given with the values) | 190,000 compounds, 0.15% hits | AID 1918969;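 active means both replicates at 50% or more, plus weaker picks with an unusually low signal ratio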;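 further: stock transfer was 100 nL into about 20 µL; 0% = negative control wells and 100% = wells with untagged competitor protein; inactives centre near -12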
# GIV Gai3 FP = GIV-Galpha-i interaction inhibition; Galpha-i3/FITC-GIV peptide fluorescence polarization, 90 min; stronger effect = lower value; scaled: aluminum fluoride 0%, vehicle 100%; percent of control (FP), % (concentration not given with the values); 210,000 compounds, 0.42% hits;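 active means replicate mean at 85% of control or lower, very high polarization wells dropped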;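 further: wells of about 15 µL received 100 nL stock; the first replicate is given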
# Target sequence (P08753 whole entry, looked up): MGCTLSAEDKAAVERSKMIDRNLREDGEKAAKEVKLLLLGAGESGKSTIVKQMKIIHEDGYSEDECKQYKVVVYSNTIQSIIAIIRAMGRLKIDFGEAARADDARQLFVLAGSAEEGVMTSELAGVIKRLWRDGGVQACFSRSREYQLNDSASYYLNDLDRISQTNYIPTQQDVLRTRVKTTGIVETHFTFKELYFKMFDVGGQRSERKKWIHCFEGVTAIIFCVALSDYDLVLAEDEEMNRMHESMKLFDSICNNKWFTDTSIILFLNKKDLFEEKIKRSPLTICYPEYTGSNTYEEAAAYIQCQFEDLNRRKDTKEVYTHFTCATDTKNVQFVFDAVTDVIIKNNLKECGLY
# Sa growth inh = blocks Staphylococcus aureus growth; S. aureus RN4220 growth, OD600, 20 h, 42 °C; stronger effect = lower value; relative growth, % (test concentration not listed); 170,000 compounds, 0.53% hits;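 active means growth at 42 °C up to 50% and 20 or more points under that at 30 °C, or under 10% at both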;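 further: 300 nL library stock went into each well; scaled to the means of positive and negative controls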
# Sa growth inh second temp = recorded beside Sa growth inh, whose call it bears; relative growth, %; measured here: growth at 30 °C;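 optical density after 20 h as mean of two plates; 100% = untreated growth and lower means inhibition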
# The depositor's hits bear a star; · = not tested or not shown.
SMILES,HCMV UL50-53 inh,GIV Gai3 FP,Sa growth inh,Sa growth inh second temp
O=C(COC(=O)C1COc2ccccc2O1)Nc1ccc(S(=O)(=O)N2CCCCC2)cc1 (stereo unspecified),-8,·,79,94
Fc1ccc(-c2noc3ncnc(NCCc4ccc(Cl)cc4)c23)cc1,·,101,103,96
CCN(c1cccc(C)c1)C(C(=O)Nc1ccc2c(c1)OCCO2)c1ccccc1 (stereo unspecified),·,103,109,95
CN1CCC(N(C)C(=O)c2sc3cc(F)ccc3c2Cl)CC1,19,·,104,102
CN(C)S(=O)(=O)c1cccc(CSc2nc3ccccc3o2)c1,-21,·,79,82
c1ccc2sc(NCC3CCCO3)nc2c1 (stereo unspecified),26,·,93,99
COc1cccc(OCC(=O)Nc2cc(C)nn2-c2ncnc3c2cnn3-c2ccc(Cl)cc2)c1,3,96,·,·
CCc1c(C)c(C#N)c2nc3ccccc3n2c1N1CCN(Cc2cc(Cl)ccc2OC)CC1,·,106,117,80
Cc1nc(N2CCC(C(=O)N3CCOCC3)CC2)c2c(C)c(C)oc2n1,-15,96,·,·
CC(C)(C)C(=O)CC#N,-5,·,89,100
CCCCC1(C)OC(=O)C(=Cc2ccc(Br)o2)C(=O)O1 (stereo unspecified),-17,113,85,69
O=C1C=C(c2ccc(Br)cc2)OC(c2ccccc2)O1 (stereo unspecified),5,·,98,83

# 4 of the entries above in order of their number in Sa growth inh second temp, lowest first:
Compound	GIV Gai3 FP	Sa growth inh	Sa growth inh second temp
CCc1c(C)c(C#N)c2nc3ccccc3n2c1N1CCN(Cc2cc(Cl)ccc2OC)CC1	106	117	80
CN(C)S(=O)(=O)c1cccc(CSc2nc3ccccc3o2)c1	·	79	82
O=C1C=C(c2ccc(Br)cc2)OC(c2ccccc2)O1 (stereo unspecified)	·	98	83
CN1CCC(N(C)C(=O)c2sc3cc(F)ccc3c2Cl)CC1	·	104	102

# Additional compounds:
SMILES,HCMV UL50-53 inh,GIV Gai3 FP,Sa growth inh,Sa growth inh second temp
CCN1C(=O)c2ccccc2S(=O)c2ccc(C(=O)NCc3ccc(Cl)cc3)cc21 (stereo unspecified),-24,99,108,82
C[C@@H](C(=O)NCCc1ccc(Cl)cc1)N1C(=O)C2CC=CCC2C1=O (stereo partly specified),-2,·,96,92
CC(=O)Oc1cccc(/C=C2\N=C(c3ccccc3Br)OC2=O)c1,·,93,105,87
Cc1ccc(Sc2ccc(N3CCCC(C(=O)NCc4ccccc4)C3)nn2)cc1 (stereo unspecified),-22,101,·,·
Cc1ccc(-c2nc(C(=O)NCc3ccccc3Cl)c3n2CCCCC3)cc1,·,104,93,96
O=C(NCCCc1ccccc1)c1ccc2c(c1)sc1nc(-c3ccc(F)cc3)cn12,·,104,107,77
C/C(=N\O)c1cc(Cl)sc1Cl,-6,106,·,·
COc1ccc2c(c1)C=C(C(=O)NCCc1ccc(S(N)(=O)=O)cc1)CO2,-99,102,·,·
Cc1onc(-c2ccccc2)c1C(=O)Nc1ccccc1N1CCOCC1,-5,·,93,92
O=C(Nc1ccc2c(c1)OCO2)C1(c2ccc(Cl)cc2)CC1,-28,·,94,89
Cn1c(=O)oc2cc(NC(=O)C(C)(C)C)ccc21,-8,106,·,·
Cc1ccc2oc(-c3cc(NC(=O)c4cccs4)cc(C)c3O)nc2c1,-6,96,103,105

# Profiles, quoted from the list. Order of values: HCMV UL50-53 inh, GIV Gai3 FP, Sa growth inh, Sa growth inh second temp
# Record of `Cc1ccc2oc(-c3cc(NC(=O)c4cccs4)cc(C)c3O)nc2c1` = -6, 96, 103, 105
# Record of `C/C(=N\O)c1cc(Cl)sc1Cl` = -6, 106, ·, ·

# Later entries
SMILES,HCMV UL50-53 inh,GIV Gai3 FP,Sa growth inh,Sa growth inh second temp
O=C(CSc1nc2c(c(=O)[nH]1)CN(Cc1ccc3c(c1)OCO3)CC2)Nc1cc(F)ccc1F,-12,101,103,89
Cc1ccc(-c2nnc3c(=O)[nH]c4ccccc4n23)cc1,-35,104,·,·
O=C(/C=C/c1ccccc1)Nc1ccccc1N1CCN(c2ccccc2)CC1,11,101,95,115
CCOc1ccc(S(=O)(=O)Nc2ccc(C)cc2)cc1-c1nc(C)no1,-19,102,·,·
COC(=O)c1ccc(NC(=O)C(=O)NCCc2csc3nc(-c4ccccc4F)nn23)cc1,·,111,99,84
Fc1ccc(Nc2c(-c3ccco3)nc3ccccn23)cc1,-9,98,86,79
COc1ccc2c(Cl)c(C(N)=O)sc2c1,-14,·,97,92
CCN1C(=O)c2ccccc2S(=O)c2ccc(C(=O)N3CCC(C)CC3)cc21 (stereo unspecified),10,104,99,97
NC(=O)C1CCN(C(=O)c2ccc(CN3C(=O)CCn4nc(-c5ccc(Cl)cc5)cc43)cc2)CC1,-6,106,·,·
Cc1ccc(-n2c(COCC(=O)O)nc3cccnc32)cc1,·,105,78,101
Cc1sc2nc(C)n(NC(N)=O)c(=O)c2c1C,-18,102,104,100
CSCCC(Nc1ncnc2ccc(Br)cc12)C(=O)O (stereo unspecified),-31,101,·,·

# In another format: results already given.
Structure: CCN1C(=O)c2ccccc2S(=O)c2ccc(C(=O)N3CCC(C)CC3)cc21 (stereo unspecified)
  HCMV UL50-53 inh = 10
  GIV Gai3 FP = 104
  Sa growth inh = 99
  Sa growth inh second temp = 97
Structure: O=C(/C=C/c1ccccc1)Nc1ccccc1N1CCN(c2ccccc2)CC1
  HCMV UL50-53 inh = 11
  GIV Gai3 FP = 101
  Sa growth inh = 95
  Sa growth inh second temp = 115

# Next structures
SMILES,HCMV UL50-53 inh,GIV Gai3 FP,Sa growth inh,Sa growth inh second temp
C/C=C/C(=O)Nc1cccc(C(F)(F)F)c1,-2,102,102,100
Cc1cc(NC(=O)C2C3C(=O)N(CCC(C)C)C(C(=O)NC(C)(C)C)C34C=CC2(C)O4)no1 (stereo unspecified),-15,99,95,82
COc1ccc(C(=O)/C=C/Nc2ccc(C(F)(F)F)cc2)cc1,6,104,107,89
Cc1cc(C)nc(Sc2nnc(-c3ccc(C)c(S(=O)(=O)N4CCOCC4)c3)c3ccccc23)n1,6,99,·,·
Cc1noc(Cn2c(=O)c3ccccc3n(CC(=O)Nc3cccc(Cl)c3C)c2=O)n1,·,102,90,91
CCC(=O)N1CCc2cc(S(=O)(=O)NC(C(=O)Nc3ccc(OC)c(OC)c3)C(C)C)ccc21 (stereo unspecified),-22,102,96,90
COc1ccc(N2C(=O)[n+]3ccccc3C2C(=O)Nc2c(C)cccc2C)cc1 (stereo unspecified),·,101,98,90
COc1ccc(-c2noc(N3CCC(C(=O)Nc4cccc(Cl)c4)CC3)n2)cc1,-4,116,·,·
CCn1cc(-c2nc(-c3ccc(F)cc3)no2)c(=O)c2cc(F)c(N3CCOCC3)cc21,-24,100,·,·
O=c1c2nnn(Cc3ccc(Cl)cc3)c2ncn1Cc1nc(-c2ccc3c(c2)OCO3)no1,-5,109,·,·
CCC(C(=O)NCc1ccccc1)n1c2ccccc2c2cn[nH]c(=O)c21 (stereo unspecified),·,104,89,84
CCNC(=S)NNc1ccc(C)cc1C,1,·,95,90
Cc1ccsc1C(=O)OCC(=O)N(C)C1CCCCC1,-19,·,118,96
O=C1Nc2cc(C(=O)NCc3ccccc3)ccc2S/C1=C\c1ccccc1,·,105,98,86
CCn1c(=O)c2cc(C(=O)NCCc3ccc(OC)c(OC)c3)sc2c2ccccc21,-4,104,109,80
COc1ccc(C2C(=O)N(CCc3ccccc3)CC(=O)N2C2CCCCC2)cc1 (stereo unspecified),2,99,102,103
CCCOc1ccc(C(=O)Nc2ccc3oc(-c4ccc5ccccc5c4)nc3c2)cc1,7,108,97,102
Brc1ccccc1Nc1ncnc2c1cnn2Cc1ccccc1,-27,103,·,·
Cc1ccccc1NC(=O)NCC1CCN(C(=O)OC(C)(C)C)CC1,-28,105,89,81
CCOc1ccc(/C=C2/SC(=O)N(CNc3ccccc3Br)C2=O)cc1,-15,100,·,·
O=C(c1cn(-c2ccccc2)nc1-c1cccs1)N1CCOCC1,-26,97,103,87
O=c1[nH]c(SCc2cccc(Cl)c2)nc2c(-c3ccccc3)c[nH]c12,-35,109,·,·
O=C(Nc1cccc(Br)c1)C1CC(=O)N(CCc2c[nH]c3ccc(F)cc23)C1 (stereo unspecified),12,104,·,·
O=C(O)C1CSC2(c3ccccc3)CCC(=O)N12 (stereo unspecified),-11,·,99,96
Cc1cccc(N2CCN(C(=O)CN3CCOc4ccccc43)CC2C)c1 (stereo unspecified),-6,103,92,86
O=C(Nc1ccc(Cl)cn1)c1cccs1,2,·,132,61
COc1ccc(/C=C/c2ccc(OC)cc2)cc1,12,94,·,·
CC1=NN(c2ccc(C(=O)O)cc2)C(=O)/C1=C\c1ccco1,-17,95,94,96
COC(=O)c1cnn(C(=O)c2ccc(OC)cc2)c1N,-27,106,95,85
O=C(Cn1c2ccccc2c2cn[nH]c(=O)c21)NCc1ccccc1,2,106,113,88
O=C(CCC1CC(=O)OC1c1ccccc1)Nc1nccs1 (stereo unspecified),-10,102,102,78
O=C(CSc1ncn[nH]1)NC12CC3CC(CC(C3)C1)C2,-30,·,120,92
COc1cccc(NC(=O)c2ccnc(N3CCC(C(=O)N4CCOCC4)CC3)c2)c1,-25,102,101,88
C=CCn1c(SCc2ccc(C(=O)OC)cc2)nc2ccccc2c1=O,6,102,83,100
Cc1ccc(-c2csc(NC3OC(=O)c4ccccc43)n2)cc1C (stereo unspecified),·,103,116,100
CN1c2ccsc2C(=O)CS1(=O)=O,-78,104,93,88
COc1ccc(NC(=O)Cn2c(=O)oc3cc(S(=O)(=O)N4CCCCC4C)ccc32)cc1 (stereo unspecified),·,101,121,89
Cn1c(-c2cc3ccc(O)c(CN4CCCC4)c3oc2=O)nc2ccccc21,·,127,100,96
CC(C)c1ccc(NC(=O)Nc2cccs2)cc1,-6,106,77,77
CNS(=O)(=O)c1ccc2ccccc2c1,-18,·,117,91
Cc1cc(Br)ccc1OCCCN1CCC(C)CC1,·,99,120,51
CC1(CN)CCCC1,-7,·,93,91
CSc1cccc(N2CC(C(=O)N3CCN(S(=O)(=O)c4ccccc4Cl)CC3)CC2=O)c1 (stereo unspecified),-4,·,109,97
CCn1c2ccccc2c2cc(CNC3CC3)ccc21,·,106,77,87
COc1cccc(-c2cc(C(=O)N3CCN(C(c4ccccc4)c4ccccc4)CC3)[nH]n2)c1,14,104,102,107
Cc1ccc2oc(C(=O)N(Cc3cccc(F)c3)C3CCS(=O)(=O)C3)c(C)c2c1 (stereo unspecified),-12,98,106,84
COc1ccc(C2=NN(CC(=O)N3CCN(c4cccc(Cl)c4)CC3)C(=O)CC2)cc1,-24,102,103,95
COc1cccc(C2CC(=O)N3CN(C4CCCCC4)CSC3=C2C#N)c1 (stereo unspecified),-48,106,88,79
COc1ccc(-c2nc3ccccc3n2CCc2ccccc2)cc1OC,·,103,87,79
CCc1ccc(-n2c(=O)c3sc4ccccc4c3n(CC(=O)N(CC)Cc3ccccc3)c2=O)cc1,-16,107,112,91
Cc1cccc(N2CCN(c3nc4ccccc4c(=O)n3Cc3ccccc3)CC2C)c1 (stereo unspecified),·,104,96,84
CCOC(=O)c1c(NC(=O)c2snnc2C)sc(C)c1C,20,101,·,·
CC(NC(=O)CN1CCN(C(=O)C2CCCO2)CC1)c1ccccc1 (stereo unspecified),-10,·,95,104
CCC(C)N(C(=O)CSc1nc(-c2ccccc2)cs1)C1CCS(=O)(=O)C1 (stereo unspecified),-3,·,91,88
COc1cc(C(F)(F)F)c(C(=O)NCc2cccc(Cl)c2Cl)cn1,-2,107,130,98
O=C(CN1CCOc2ccccc21)N1CCC(Cc2ccccc2)CC1,0,100,105,86
COC(=O)c1ccc(COn2nnc3ccc(S(=O)(=O)N4CCOCC4)cc32)o1,-8,·,96,91
CCc1ccc(C2CC(=O)NC(NC(=O)Cc3ccc(OC)c(OC)c3)=N2)cc1 (stereo unspecified),-34,101,104,78
N#CC(C#N)=C/C=C/c1cc(C#N)c(N)o1,-107,·,77,81
CCOc1ccccc1CNC(=O)C1CCN(Cc2cc3ccccc3n2Cc2ccccc2)CC1,·,99,132,93
# Later entries:
SMILES,HCMV UL50-53 inh,GIV Gai3 FP,Sa growth inh,Sa growth inh second temp
COc1cccc(CN(C(=O)COc2ccc(Cl)c(C)c2)C2CCS(=O)(=O)C2)c1 (stereo unspecified),-11,102,96,76
CC1CC(C)CN(C(=O)c2cc(-c3ccccc3)n[nH]2)C1 (stereo unspecified),-31,97,·,·
O=c1onc(-c2cccs2)n1Cc1ccc(F)cc1Cl,·,101,99,89
CSc1scc(-c2cccc(Cl)c2)c1C#N,-9,105,85,74
CC(=O)N1CCN(C(=O)CN2C(=O)S/C(=C\c3ccc(Cl)cc3)C2=O)CC1,-59,·,108,95
Cc1nc(-c2ccccc2)sc1CCNC(=O)c1ccco1,·,101,86,94
CCCCC(=O)c1ccc(C)[nH]c1=S,-6,·,92,100
CCc1ccc(N=C(N)N=C(N)N)cc1,-36,96,103,86
COc1ccc(C2C3=C(CC(c4ccccc4)CC3=O)Nc3ncnn32)cc1 (stereo unspecified),-23,101,·,·
Cc1ccc(CCNc2nc3c(S(=O)(=O)c4ccc(C)cc4)nnn3c3ccsc23)cc1,·,109,94,95
Cc1c(NC(=O)CSc2ccccn2)c(=O)n(-c2ccccc2)n1C,·,98,98,93
Cc1ccc(CNC(=O)C(=O)NCC(c2ccco2)S(=O)(=O)c2ccccc2)cc1 (stereo unspecified),·,99,129,94
O=C(O)CCSc1ccc(F)c(F)c1,12,·,115,100

# Outcome played no part in choosing rows; overall some 0.79% were active at least once.
